From PubChem BioAssay
gsp antag = gsp mutant antagonism. 0.4% of 340,000 active. gsp-mutant cells, cAMP HTRF, 30 min; control for the full effect not named in the record. Potency, µM (highest dose often 76.9 µM), for inactives: top-dose activity change, negative = inhibition, hits mostly inhibitors; active = falling curve of any shape with a large fitted effect; inconclusive = falling curve, mostly with a smaller effect; inactive = flat or rising curve; cell line not stated here;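 note: intracellular cAMP measured with PDE inhibitor Ro 20-1724 present during compound exposure; potency is the fitted concentration of half-maximal effect; % is set by controls: 0 for no effect and ±100 for the full control effect; nearly all actives have a fitted effect of over 65% in size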
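Cells in G418 medium, seeded 16-24 h, 37C; buffer exchange to DPBS + 1 mM CaCl2, 0.5 mM MgCl2, 0.05% BSA; cpds in DMSO + […] (300 uM stock), 30 min 37C; HTRF cAMP detection.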
TRPML1 blocker = inhibitors of human TRPML1 channel; Q9GZU1; TRPML1-inducible cells, Ca2+ dye fluorescence, FDSS; active compounds read low; inhibition of EC80 agonist-evoked calcium signal; 0.02% of 390,000 active; activity change, negative = inhibition, % (concentration not given with the values); in the data active means activity change below about -50%; inconclusive means about -30% to -50%; inactive means above about -30%;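 note: stimulus is agonist 54-4 at its EC80 concentration; % is set by controls: 0 for no effect and ±100 for the full control effect; the text of the record puts the active cut at -80%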
Target sequence (Q9GZU1 whole entry, looked up): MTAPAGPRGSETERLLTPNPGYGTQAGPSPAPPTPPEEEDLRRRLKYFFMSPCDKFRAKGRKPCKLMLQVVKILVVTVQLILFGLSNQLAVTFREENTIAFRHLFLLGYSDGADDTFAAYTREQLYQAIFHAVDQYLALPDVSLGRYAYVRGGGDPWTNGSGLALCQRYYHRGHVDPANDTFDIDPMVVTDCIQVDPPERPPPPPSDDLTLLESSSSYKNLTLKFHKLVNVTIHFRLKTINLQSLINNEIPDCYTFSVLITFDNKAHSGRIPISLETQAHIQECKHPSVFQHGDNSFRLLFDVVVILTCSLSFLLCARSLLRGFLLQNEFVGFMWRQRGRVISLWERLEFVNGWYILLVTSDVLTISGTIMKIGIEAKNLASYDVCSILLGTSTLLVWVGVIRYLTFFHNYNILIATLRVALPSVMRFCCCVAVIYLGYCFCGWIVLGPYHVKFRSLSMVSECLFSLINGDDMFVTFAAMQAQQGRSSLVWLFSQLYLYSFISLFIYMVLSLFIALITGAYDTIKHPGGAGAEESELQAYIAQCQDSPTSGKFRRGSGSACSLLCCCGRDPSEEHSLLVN
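TRPML1-DL cells, Tet-induced overnight (~16 h, 37 °C) at 1,500 cells/well, were loaded with Ca8 no-wash dye plus quencher for 45-90 min at room temperature. Compounds were pinned during FDSS kinetic reading; agonist 54-4 at EC80 (4 uM final) then added.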
Menin-MLL FL inh = displaces fluorescein MLL peptide from human menin; FP activity change, % at 61.4 µM; Fluorescence polarization, fluorescein-MLL peptide displacement from menin; 290,000 tested, under 10 active; inconclusive = falling polarisation curve, or a change in total fluorescence; inactive = total fluorescence flat and polarisation flat or rising; no compound was filed as active; the % refers to the polarisation; negative = inhibition;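 note: % of control where 0% means no effect; inhibitors lower the polarisation; unlabelled MLL peptide was the positive control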
ClpP mod = qHTS Assay for Activators of ClpP; ATP-dependent Clp protease proteolytic subunit (Bacillus subtilis (strain 168)), P80244; purified B. subtilis ClpP, FRET peptide cleavage, 20 min; Potency, µM (highest dose often 57.5 µM), inactives show at the highest dose activity change, negative = active; 1.9% of 340,000 active; AID 651965, 2013; active = well fitted falling curve with a large enough effect; inconclusive = small, poorly fitted or top-dose-only effect; inactive = no such curve, though single readings can be large or run the other way; note: potency is the fitted concentration of half-maximal effect; the source files actives as falling curves though it sought activators and does not explain the sign; nearly all actives have a fitted effect of over 65% in size; many hits overshoot -100%
Target sequence (P80244 whole entry, looked up): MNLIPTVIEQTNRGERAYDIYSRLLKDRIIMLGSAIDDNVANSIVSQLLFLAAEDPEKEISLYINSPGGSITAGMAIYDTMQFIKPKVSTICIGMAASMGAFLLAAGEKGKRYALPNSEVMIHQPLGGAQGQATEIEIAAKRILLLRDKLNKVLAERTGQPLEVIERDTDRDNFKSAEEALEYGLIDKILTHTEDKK
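Purified B. subtilis ClpP, 10 microg/mL final in Tris/HCl pH8 with KCl, BSA, glycerol and Tween-20, cleaved an Abz/nitrotyrosine-quenched decapeptide. Fluorescence (ex 320, em 430) was read at 0 and 20 min at room temperature. Delta was normalized to 5.8 microM ADEP and DMSO/no-enzyme controls.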
gsp ag = gsp mutant agonism | Potency, µM (highest dose often 76.9 µM), inactives show at the highest dose activation (cAMP increase), hits mostly activators | 0.13% of 340,000 active | AID 624287 | gsp mutant cells, cAMP HTRF, 30 min; control for the full effect not named in the record; active = well fitted activation curve with a large enough effect; inconclusive = small, poorly fitted or top-dose-only effect, or another doubt; inactive = no such curve, though single readings can be large or run the other way; cell line not stated here;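 note: phosphodiesterase inhibitor Ro 20-1724 added with compounds to block cAMP breakdown; potency is the fitted concentration of half-maximal effect; nearly all actives have a fitted effect of over 60% in size; about a fifth of the inactives were tested at one dose only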
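Cells stably selected in G418 were plated at 2000/well, grown 16-24 hr, then given compounds in DMSO with the PDE inhibitor […] (300 uM solution added) for 30 min at 37C; cAMP was read by HTRF.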
Sfp PPTase inh = Sfp phosphopantetheinyl transferase inhibition; Q9F4F7; Biochemical Sfp PPTase activity, qHTS; Potency, µM, for the others: max response, negative = inhibition, hits mostly inhibitors; 3.5% of 310,000 active; AID 1490; active = well fitted inhibition curve with a large enough effect; inconclusive = small, poorly fitted or top-dose-only effect, or another doubt; inactive = no such curve, though single readings can be large or run the other way;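 note: the enzyme is Sfp with the accession as filed and its product quenches rhodamine fluorescence; potency is the fitted concentration of half-maximal effect; 0% = enzyme reaction without inhibitor and -100% = no enzyme wells; top concentration of the series not given in the record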
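Fluorescence-quenching assay with 15 nM Sfp, 5 uM rhodamine-CoA and 12.5 uM BHQ-2-labelled ybbR peptide in pH 7.6 Hepes/MgCl2 buffer. Enzyme was pre-incubated with compound for 15 min at room temperature. Rate was taken from the 30-min fluorescence change (525/598 nm).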
TRPV1 potentiator = enhances activation of the human vanilloid receptor TRPV1; Q8NER1; AID 540277; potentiation, % at 8.33 µM; TRPV1-expressing cells, Fluo-8 calcium influx, capsaicin EC20 potentiation; host cell line not named in the record; control for the full effect not named in the record; 0.02% of 320,000 active; active means potentiation above 80%; inconclusive means 30% to 80%; inactive means below 30%; note: 0% is about no effect
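Cells expressing TRPV1 were dye-loaded with Fluo-8 and read kinetically: 10 s baseline, 3 min after compound (agonist portion), then 2 min after EC20 capsaicin (allosteric enhancer portion). Calcium-bound dye fluorescence at 480/520 nm.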
Active calls of the source: *; ? = inconclusive; / = no result given; & = joins results of further samples; [ ] = remark or other dose.

Start of the listing, in advance (4 entries):
Values in the order – gsp antag, TRPML1 blocker, Menin-MLL FL inh, ClpP mod, gsp ag, Sfp PPTase inh, TRPV1 potentiator
#1 Cc1cc(NC(=O)c2cc3cc([N+](=O)[O-])ccc3s2)no1
→ /, 31, /, -0.5%, -68%[inhibitor], /, /
#2 COc1ccc(C(=O)CSc2nnc(Cc3ccccc3)o2)cc1
→ 0%, 5, 1.9, -2.7%, 17%, -14%, -26
#3 CCC(C)NC(=O)C1CCN(C(=O)N(C)C)CC1 (stereo not given)
→ 9%, 9, -0.9, -2.2%, 2%, -10%, 2
#4 CC(C)=C1C(=O)NN(c2cccc(Cl)c2)C1=O
→ -6%, -6, 8.1, 1.2%, 22%[15.4 µM], 12%, 4

The listing, from the first entry:
Values in the order – gsp antag, TRPML1 blocker, Menin-MLL FL inh, ClpP mod, gsp ag, Sfp PPTase inh, TRPV1 potentiator
#1 Cc1cc(NC(=O)c2cc3cc([N+](=O)[O-])ccc3s2)no1
→ /, 31, /, -0.5%, -68%[inhibitor], /, /
#2 COc1ccc(C(=O)CSc2nnc(Cc3ccccc3)o2)cc1
→ 0%, 5, 1.9, -2.7%, 17%, -14%, -26
#3 CCC(C)NC(=O)C1CCN(C(=O)N(C)C)CC1 (stereo not given)
→ 9%, 9, -0.9, -2.2%, 2%, -10%, 2
#4 CC(C)=C1C(=O)NN(c2cccc(Cl)c2)C1=O
→ -6%, -6, 8.1, 1.2%, 22%[15.4 µM], 12%, 4
#5 CC(OC(=O)C1COc2ccccc2O1)C(=O)N(C)c1ccccc1 (stereo not given)
→ /, 29, 0.8, /, 6%[15.4 µM], 14%, 3
#6 Cc1cc(OCC(=O)Nc2cc(C(C)(C)C)on2)ccc1[N+](=O)[O-]
→ -11%, 3, /, 1.6%, -60%[inhibitor], 4%, -1
#7 CCOc1ccc(-c2nc(N)nc(C)c2-c2ccc(OC)c(OC)c2)c(O)c1
→ -8%[15.4 µM], 16, 0.9, -0.7%, -29%, 10%, -13
#8 CC(C)CCn1c(SCC(=O)Nc2ccccc2C(F)(F)F)nc2nccnc2c1=O
→ 4%, -1, /, -4.5%, ?, ?, 19
#9 COc1ccc(OC)c2[nH]c(C(=O)O)cc12
→ 0%, 16, 0.6, -19%, 19%, -3%, 22
#10 O=C(NC1CCCCC1)C1CC(=O)N(CCc2ccccc2)C1 (stereo not given)
→ 17%, 31, 2.4, 0.0%, -3%, 1%, 12
#11 CCCCOCCCNC(=O)N[C@H](C(=O)O)C(C)CC (stereo not given in full)
→ 4%, 6, -4.8, /, 2%[15.4 µM], 14%, 1
#12 C[C@H](CO)N1C[C@H](C)[C@@H](CN(C)CC2CCCCC2)Oc2ccc(NC(=O)CCN3CCOCC3)cc2C1=O
→ 6%, -4, /, -6.7%, /, /, /
#13 CC(=O)Nc1ccc(S(=O)(=O)N2CCC(N3CCCCC3)CC2)cc1
→ 4%, 0, 1.6, /, 8%[15.4 µM], 16%, 1
#14 COc1ccc(/C=C2\SC(=S)N(CCCC(=O)Nc3ccc(C(=O)O)cc3)C2=O)cc1OC
→ -8%, -14, ?, -2.3%, 0%, -4%, 12
#15 Fc1ccc(CSc2ccc(-c3cccs3)nn2)cc1
→ 6%, -3, 0.5, 1.6%, -3%, 0%, -7
#16 Cc1cc(C(=O)COC(=O)CCc2nc3ccccc3s2)c(C)n1C
→ -16%, -4, -1.7, 0.4%, 11%, 11%, 27
#17 CC(C)CN1CCN(Cc2ccc(CN3CCCCC3)s2)CC1CCO (stereo not given)
→ 4%, -7, -3.6, /, 11%, -1%, -1
#18 NS(=O)(=O)c1ccc(O)c(N2C(=O)c3cccc4c(C(=O)c5ccccc5)ccc(c34)C2=O)c1
→ /, /, -0.9, /, /, -23%, 12
#19 CC(C)CN(C(=O)c1cccc(Cl)c1)c1c(N)n(CC(C)C)c(=O)[nH]c1=O
→ 2%, 21, -1.8, /, 4%, 16%, 2
#20 O=C(NCc1ccco1)c1ccc(CS(=O)Cc2cccc(Cl)c2)o1 (stereo not given)
→ 9%, 5, -3.3, -0.1%, -38%[inhibitor], 3%, -18
#21 COC(=O)Cc1c(C)c2ccc(OCC(=O)N(C)C)cc2oc1=O
→ 3%, 28, 3.8, ?, -53%[inhibitor], 13%, -6
#22 CN(C)c1ccc(CNc2ncn[nH]2)cc1
→ -15%, 14, 7.9, -0.3%, -20%, 10%, -11
#23 COC(=O)c1cc(NC(=O)CSc2ncn[nH]2)ccc1Cl
→ -5%, -3, -4.6, -1.2%, 11%, -8%, -1
#24 O=C(CSc1ncnc2c1oc1ccccc12)Nc1nccs1
→ 4%, 14, -1.2, -1.6%, ?, -4%, 0
#25 O=C(NCc1ccco1)C1CC(c2ccc(Cl)cc2)=NO1 (stereo not given)
→ 19%, 8, 0.3, 2.0%, -42%[inhibitor], 15%, -6
#26 CCc1ccc(-c2cc(C)no2)cc1S(=O)(=O)Nc1cccc(CN2CCCC2)c1
→ -6%, 1, 2.7, 0.4%, 16%, 21%, 9
#27 CC1CC(C)CN(C(=O)CSc2ncnc3sccc23)C1 (stereo not given)
→ -2%, 20, /, 0.6%, 7%, /, -24
#28 Cc1ccc2ncccc2c1
→ 0%, -6, /, 0.6%, /, /, 2
#29 CC(NC(=O)CCc1ccc(S(=O)(=O)NC2CCCCC2)cc1)c1ccccc1 (stereo not given)
→ -1%, 30, 3.8, 1.4%, -1%, 5%, -12
#30 CN(CCOc1ccc(Cl)cc1)C(=O)C1=CC=CN2CCS(=O)(=O)N=C12
→ 11%, -10, /, -17%, 4%, /, /
#31 COc1ccc(S(=O)(=O)N2CCC(C(=O)NC3CC3)CC2)cc1OC
→ 11%, -2, 4.1, 0.7%, -5%, 17%, 21
#32 Cc1ccc(C)c(N2N=C(C(=O)Nc3nccs3)CCC2=O)c1
→ 0%, 6, -2.4, /, 0%[15.4 µM], -3%, 0
#33 COc1ccc(S(=O)(=O)N2CCOCC2)cc1NC(=O)c1cccc2c(=O)c(C)c(-c3ccccc3)oc12
→ 17%, 0, -0.3, -23%, ?, 16%, 9
#34 COc1ccc(C(CCN2CCCCC2)c2c(OC)cc(OC)c3c(-c4ccccc4)cc(=O)oc23)cc1 (stereo not given)
→ 8%, 0&-14, 2.8&-0.6, -8.0%, /, -25%, -9
#35 CCCc1cc(=O)[nH]c(SC(CC)C(=O)Nc2ccccc2C#N)n1 (stereo not given)
→ 1%, 1, 2.7, -2.6%, 0%, 20%, -1
#36 O=C(O)c1ccccc1-c1ccccc1C(=O)Nc1ccccc1
→ -1%[15.4 µM], 24, -0.5, -3.4%, -26%, 27%, 10
#37 COc1cc2c(cc1OC)C(C1C(=O)CCCC1=O)N(C(=O)CCl)CC2 (stereo not given)
→ 3%, -9, -0.2, -25%, 8%, 0%, -1
#38 Cc1nc(Cl)c(S(N)(=O)=O)c(C)c1Cl
→ -5%, -23, -1.1, /, 2%, 7%, 2
#39 O=C(NC(=S)Nc1cccc(F)c1)c1cccc([N+](=O)[O-])c1
→ -12%, -2, 2.5, -1.0%, -2%, ?, 16
#40 Cn1c(SCc2ccccc2Cl)nc2ccccc21
→ -2%, 7, -2.1, 0.5%, -16%, -12%, -13
#41 CCOC(=O)NC(O)C(=O)c1ccc(F)cc1 (stereo not given)
→ 10%, -16, 0.3, -2.5%, 6%, 11%, 1
#42 O=C(COC(=O)[C@H](Cc1ccccc1)NC(=O)c1cccs1)Nc1cc(F)ccc1F
→ -14%, -6, 0.6, 1.1%, 15%, 4%, 9
#43 COc1ccc(/C=N/OCC(=O)OCC(=O)N(C)c2ccccc2)cc1
→ 1%, 6, /, 1.9%, 19%, /, 12
#44 C[C@@H]1CN([C@H](C)CO)C(=O)CCCn2cc(nn2)CO[C@H]1CN(C)C(=O)Nc1ccc(-c2cccs2)cc1
→ /, 14, /, 4.6%, ?, /, /
#45 Cc1nn(-c2ccccc2)nc1CNC(=O)C(C)Cc1ccccc1 (stereo not given)
→ 0%, -3, 2.3&-0.2, -19%, -17%, -1%&16%, -7
#46 Cc1nn(C)cc1S(=O)(=O)NC1CCCC1
→ /, 4, 0.3, /, 7%[15.4 µM], 8%, 5
#47 O=C(CSc1ncccc1C(=O)O)NCCC1=CCCCC1
→ -1%, -6, 0.5, -0.5%, 18%, 20%, -12
#48 CCCN1CCC2(CC1)C(C#N)=C(N)Oc1c2sc2nc(C)cc(C)c12
→ 3%, 25, ?, -6.1%, 22%, ?, -1
#49 CC[C@@]1(C(=O)OC)N[C@H](CN(C)S(=O)(=O)c2ccc(OC(F)(F)F)cc2)[C@@H]2C(=O)N(C)C(=O)[C@@H]21
→ 1%, -14, /, -0.7%, /, /, /
#50 COc1ccc(C2C3=C(CC(c4ccco4)CC3=O)Nc3ccccc3N2C(C)=O)cc1 (stereo not given)
→ -2%, 41, -0.3, -20%, 27%, 14%, 0

New compounds follow
Values in the order – gsp antag, TRPML1 blocker, Menin-MLL FL inh, ClpP mod, gsp ag, Sfp PPTase inh, TRPV1 potentiator
#51 O=C(Nc1nnc(Cc2ccccc2)s1)Nc1ccccc1F
→ 6%, 32, 9.2, -0.7%, 1%, 4%, 4
#52 COc1ccc(C(=O)N/N=C(\C)CC(=O)Nc2cccc(C(F)(F)F)c2)cc1
→ -4%, 23, 12, -4.4%, 0%[15.4 µM], 14%, -23
#53 Cc1cccnc1CN1CCN(Cc2nc(C(c3ccccc3)c3ccccc3)no2)CC1
→ 2%, -13, -4.9, -2.6%, 2%, 18%, 9
#54 Cc1nc(N)sc1-c1ccccc1
→ 7%, 11, /, /, ?, /, /
#55 C=C(C)CSc1nc2c(c(=O)[nH]c(=O)n2C)n1CCC(C)C
→ 0%, 13, 0.1, -0.6%, -8%, -10%, -10
#56 Clc1ccccc1-c1nc(-c2ccncc2)no1
→ 3%&-6%, 5&-4, 1.9&-1.5&4.2, /, 19%, 3%&-12%&15%, ?
